Screening results as filed in PubChem.
SARS PLpro yeast: inhibitors of SARS-CoV papain-like protease in yeast. 0.19% of 330,000 active. S. cerevisiae expressing SARS-CoV PLpro, growth rescue; control for the full effect not named in the record. Potency, µM (series often up to 32.9 µM), inactives show at the top dose activity, positive = growth rescue; also: 0% is about no effect; nearly all actives have a fitted effect of over 55% in size; growth read by luminescence after 48 h
2A StopGo: FMDV 2A StopGo reporter, luciferase signal. human cells with a luciferase reporter of 2A StopGo recoding; control for the full effect not named in the record. Potency, µM (titrated, usually from 57.9 µM), for the others: top-dose signal change, negative = less light. 1.2% of 410,000 active; active = well fitted falling curve with a large enough effect; inconclusive = small, poorly fitted or top-dose-only effect; inactive = no such curve, though single readings can be large or run the other way; tested in HEK293T cells; also: % is scaled to controls: 0 for no effect and ±100 for the full control effect; nearly all actives have a fitted effect of over 45% in size; luciferase light after 4 h
RE007 growth inh: less growth of the S. pombe RE007 Vpr strain. S. pombe RE007 Vpr strain, BacTiter-Glo ATP luminescence, 24 h; control for the full effect not named in the record. Potency, µM (highest dose often 92.2 µM), inactives show at the top dose activity change, negative = less growth. 0.21% of 360,000 active; active = well fitted falling curve with a large enough effect; inconclusive = small, poorly fitted or top-dose-only effect; inactive = no such curve, though single readings can be large or run the other way;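 also: % is scaled to controls: 0 for no effect and ±100 for the full control effect; nearly all actives have a fitted effect of over 50% in size; the assay follows cell death caused by Vpr and the record does not say whether a fall means rescue or toxicity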
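Fission yeast strain RE007, carrying one chromosomally integrated HIV-1 vpr copy, was seeded at OD 0.01 in PMG+AL medium with 23 nL pinned compound. After 24 h at 30 °C and 99% humidity, viability was read by BacTiter-Glo luminescence.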
MARV entry inh: inhibitors of Marburg virus binding or cell entry | Marburg virus pseudotyped entry inhibition, cell reporter; control for the full effect not named in the record; about a third of the inactives were read at about 46 µM | Potency, µM (doses to about 37.8 µM), without a hit: top-dose activity change, negative = inhibition, usual class: inhibitors | 1.8% of 300,000 active; active = well fitted inhibition curve with a large enough effect; inconclusive = small, poorly fitted or top-dose-only effect, or effect the other way; inactive = flat fitted curve, though single readings scatter; tested in HEK293 cells; about a fifth of its hits are not listed in these tables; also: % is scaled to controls: 0 for no effect and ±100 for the full control effect; luciferase read-out
Cruzain inh noDet: cruzain (T. cruzi) inhibition without detergent; P25779; purified cruzain, Z-FR-AMC fluorescence, no detergent; Potency, µM, without a hit: max response, negative = inhibition, most hits filed as inhibitors; 2.3% of 200,000 active; AID 1476; active = well fitted curve in the direction sought with a large enough effect; inconclusive = small, poorly fitted or top-dose-only effect, or another doubt; inactive = no such curve, though single readings can be large; an effect the other way counts as inactive or inconclusive;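 also: plate controls were enzyme without inhibitor for no effect and buffer without enzyme for full effect; nearly all actives have a fitted effect of over 40% in size; top concentration of the series not given in the record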
Target sequence (P25779 123-467 limits assumed): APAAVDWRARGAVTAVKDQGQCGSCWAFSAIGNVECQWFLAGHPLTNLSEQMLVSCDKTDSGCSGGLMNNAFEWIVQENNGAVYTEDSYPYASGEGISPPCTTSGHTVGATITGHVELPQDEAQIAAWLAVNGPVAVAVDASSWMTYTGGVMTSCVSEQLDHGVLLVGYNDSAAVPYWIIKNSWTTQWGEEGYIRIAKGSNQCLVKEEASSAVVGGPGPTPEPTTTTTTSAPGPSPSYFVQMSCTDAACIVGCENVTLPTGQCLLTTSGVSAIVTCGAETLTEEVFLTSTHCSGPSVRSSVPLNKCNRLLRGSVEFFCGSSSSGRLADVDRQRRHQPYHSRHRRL
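Purified cruzain at 1.5 nM, pre-incubated 15 min with compound at room temperature in 100 mM sodium acetate pH 5.5, 5 mM DTT, 0.00005% Triton X-100. Reaction started with 2 uM Z-FR-AMC; AMC fluorescence increase over 60 s gives rate.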
NS1 inh: influenza NS1 inhibition. S. cerevisiae slowed by influenza A NS1, growth recovery by OD600. Potency, µM (top dose mostly 46.1 µM), without a hit: at the top dose activity, positive = more growth. 0.4% of 270,000 active. AID 2326; also: actives are rising curves; nearly all actives have a fitted effect of over 50% in size
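Recovery from NS1-induced slow growth read by OD600 in budding yeast switched to galactose assay medium (pH 6.0, -URA) at 1:100 dilution. Compound 23 nl per well; the matching strain lacking NS1 serves as control.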
Cruzain Triton: cruzain (T. cruzi) inhibition with detergent; 0.43% of 200,000 active; purified cruzain, Z-FR-AMC fluorescence, 0.01% Triton; Potency, µM, for the others: max response, negative = inhibition, most hits filed as inhibitors; AID 1478; P25779; active = well fitted curve in the direction sought with a large enough effect; inconclusive = small, poorly fitted or top-dose-only effect, or another doubt; inactive = no such curve, though single readings can be large; an effect the other way counts as inactive or inconclusive;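 also: plate controls were neutral wells for no effect and buffer without enzyme for full effect; nearly all actives have a fitted effect of over 40% in size; top concentration of the series not given in the record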
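Detergent-containing arm of a paired screen for aggregation-based inhibition: 0.01% Triton X-100 present. Cruzain at 1.5 nM cleaved 2 uM Z-FR-AMC at pH 5.5 with 5 mM DTT; AMC fluorescence gain over 60 s measured activity.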
Lassa entry inh: Lassa virus entry inhibition | Lassa virus pseudotype entry inhibition, cell reporter; control for the full effect not named in the record | Potency, µM (highest dose often 37.9 µM), inactives show at the highest dose activity change, negative = inhibition, hits mostly inhibitors | 1.2% of 300,000 active; active means well fitted inhibition curve with a large enough effect; inconclusive means small, poorly fitted or top-dose-only effect, or effect the other way; inactive means flat fitted curve, though single readings scatter; tested in HEK293 cells; also: % is scaled to controls: 0 for no effect and ±100 for the full control effect; nearly all actives have a fitted effect of over 50% in size; luciferase read-out
* = called active by the depositor; & = joins results of further samples; [ ] = dose if it differs, or a comment. Unless noted, calls follow the shape of the dose curve; as a rule, active means well fitted rising curve with a large enough effect; inconclusive means small, poorly fitted or top-dose-only effect; inactive means no such curve, though single readings can be large or run the other way. Potency is read from the fitted curve at half-maximal effect.

Screening CC(C)C[C@@H](CN(N=O)[C@@H](Cc1ccccc1)CN(C)N=O)N(CCc1ccccc1)N=O returned SARS PLpro yeast 0.7%, 2A StopGo 1.5%, RE007 growth inh 3.2% and NS1 inh 5.3%.
Screening CC1(C)CC(=O)C=C(Nc2ccccc2NC(=O)c2cnccn2)C1 returned SARS PLpro yeast 5.1%, 2A StopGo -8.3%, RE007 growth inh 3.9%, MARV entry inh -7.3%, Cruzain inh noDet -3.1%, NS1 inh 1.6%, Cruzain Triton -1.6% and Lassa entry inh 16.3%.
`CN1CCN(CCCNC(=O)Cn2nc(-c3ccccc3)ccc2=O)CC1` gave SARS PLpro yeast 4.4%, RE007 growth inh -5.2%, MARV entry inh 8.4%, Cruzain inh noDet -10.6%, NS1 inh 3.8%, Cruzain Triton 3.1% and Lassa entry inh -14.7%.
COCC(C)NC(=O)NC(=O)c1ccc(Cl)cc1 (stereo not given) was read as SARS PLpro yeast -1.5%, RE007 growth inh -0.2%, MARV entry inh 15.5%, Cruzain inh noDet -12.3%, NS1 inh -15.1%, Cruzain Triton 1.1% and Lassa entry inh 13.1%.
For C=C(C)Cn1c(SCC#N)nc2ccccc2c1=O the results were SARS PLpro yeast -12.2%, 2A StopGo 2.3%, RE007 growth inh 4.5%, MARV entry inh 0.0%&0.0%, Cruzain inh noDet -10.8%, NS1 inh -7.7%, Cruzain Triton 1.5% and Lassa entry inh 1.4%.
For COc1ccc(CCc2nnc(CCC(=O)NCC3CCCO3)o2)cc1 (stereo not given) the results were SARS PLpro yeast 3.2%, 2A StopGo 9.5%, RE007 growth inh 7.9%, MARV entry inh -2.5%[46.1 µM], NS1 inh 9.8% and Lassa entry inh -22.5%[46.1 µM].
`COc1ccccc1CNC(=O)CCC(=O)N1CCOc2ccc(C)cc21` gave SARS PLpro yeast -6.1%, 2A StopGo -17.2%, RE007 growth inh 16.5% and NS1 inh -2.8%.
For Cc1cccc(NC(=O)c2cccc(S(=O)(=O)N(C)c3ccccc3)c2)n1 the results were SARS PLpro yeast 1.1%, 2A StopGo -16.8%, RE007 growth inh 55.3%, MARV entry inh inconclusive and Lassa entry inh inconclusive.
Screening Cc1ccc(S(=O)(=O)N(C)c2ccc(C(=O)NCc3cccnc3)cc2)cc1 returned SARS PLpro yeast -5.6%, 2A StopGo -19.1%, RE007 growth inh -2.5%, MARV entry inh inconclusive, NS1 inh -4.7% and Lassa entry inh -15.5%[46.1 µM].
Screening COc1ccc(CNC(=O)c2cc(C)nc3c2c(C)nn3-c2cccc(Cl)c2C)cc1 returned 2A StopGo -19.9%, Cruzain inh noDet -0.6%, Cruzain Triton -2.0% and Lassa entry inh 19.9%[46.1 µM].
Screening CSc1nc(N)nc(SCC(=O)c2ccc(C)cc2)c1C#N returned SARS PLpro yeast -0.7%, 2A StopGo -15.1%, RE007 growth inh 5.1%, MARV entry inh 3.0%, Cruzain inh noDet inconclusive, NS1 inh -0.4%, Cruzain Triton 2.2% and Lassa entry inh inconclusive.
Screening Nc1nc(NCCO)nc(N2CCCCCC2)c1[N+](=O)[O-] returned SARS PLpro yeast -0.1%, 2A StopGo -23.5%, RE007 growth inh 8.7% and NS1 inh 3.6%.
CC(Oc1cccc2c1OC(C)(C)C2)C(=O)O (stereo not given) was read as SARS PLpro yeast 13.3%, 2A StopGo -6.3%, RE007 growth inh 3.9%, MARV entry inh -23.8%, Cruzain inh noDet 3.8%, NS1 inh 2.8%, Cruzain Triton 0.2% and Lassa entry inh 2.2%.
Screening CCCCOc1ccc(N(CC(=O)NCc2ccco2)C(=O)CCC(=O)Nc2nccs2)cc1 returned SARS PLpro yeast 0.1%, 2A StopGo 12.1%, RE007 growth inh -17.8%, MARV entry inh -3.7%[46.1 µM] and NS1 inh 10.9%.
`CCN(CCCNC(=O)CCn1c(=O)[nH]c2ccsc2c1=O)c1ccccc1` gave SARS PLpro yeast 1.4%, 2A StopGo -4.0%, RE007 growth inh 3.3%, MARV entry inh -15.6%[46.1 µM] and Lassa entry inh 1.4%.
Screening CCCNC(=O)NC1CCCCCCC1 returned SARS PLpro yeast -0.8%, 2A StopGo 6.6%, RE007 growth inh 16.3%, MARV entry inh -4.5%[46.1 µM], NS1 inh 6.8% and Lassa entry inh -6.0%.
Screening CCOC(=O)c1cnn(-c2ccccn2)c1N returned SARS PLpro yeast 3.4%, 2A StopGo 22.6%, RE007 growth inh -20.7%, MARV entry inh inconclusive, Cruzain inh noDet 12.2%, NS1 inh -50.5%, Cruzain Triton -1.7% and Lassa entry inh 0.6%.
Screening Cc1ccc2c(c1)c1c(c(=O)n(-c3ccccc3)c(=O)n1CC(=O)c1ccc(F)cc1)n2C returned 2A StopGo -4.5%, Cruzain inh noDet -2.6%, Cruzain Triton -0.3% and Lassa entry inh 0.7%[46.1 µM].
`CCOc1ccccc1CN1CCN(Cc2cc3ccccc3[nH]2)CC1CCO` (stereo not given) gave SARS PLpro yeast -1.6%, 2A StopGo -29.2%, RE007 growth inh 9.6%, MARV entry inh inconclusive, NS1 inh -4.6% and Lassa entry inh 18.6%.
`N#CC1=C(N)N(c2ccccc2)C(c2ccccc2)C1(C#N)C#N` (stereo not given) gave SARS PLpro yeast 8.2%, 2A StopGo inconclusive, RE007 growth inh 0.3%, MARV entry inh -9.6%, Cruzain inh noDet -17.1%, NS1 inh -1.8%, Cruzain Triton -6.8% and Lassa entry inh -2.1%.
`Cc1sc2c(c1C)c(=O)n(-c1ccc(F)cc1)c(=O)n2CC(=O)NCc1ccco1` gave SARS PLpro yeast 2.4%, 2A StopGo -6.0%, RE007 growth inh 4.0%, MARV entry inh inconclusive, Cruzain inh noDet 8.0%, NS1 inh 23.4%, Cruzain Triton 3.8% and Lassa entry inh 0.8%.
`C/C(=N\Nc1ccc(F)cc1)c1ccncc1` gave SARS PLpro yeast -27.8%, 2A StopGo -0.3%, RE007 growth inh -22.8%, MARV entry inh -35.6%, Cruzain inh noDet -0.3%, NS1 inh -17.9%, Cruzain Triton -4.3% and Lassa entry inh 0.9%.
`Cc1cc(N2CCN(C)CC2)nc2ccc(NC(=S)NCCCN3CCN(C)CC3)cc12` gave SARS PLpro yeast -7.1%, 2A StopGo -22.7%, RE007 growth inh -16.8% and NS1 inh 6.6%.
NC(=O)CC(NC(=O)Cc1ccc(Br)cc1)c1ccc(NCCN2CCOCC2)c([N+](=O)[O-])c1 (stereo not given) was read as SARS PLpro yeast 2.1%, 2A StopGo 3.8%, RE007 growth inh 16.7% and NS1 inh -7.4%.
CC(C)Cn1c(O)c(N=NC(=O)c2cccc(S(=O)(=O)N3CCCCC3)c2)c2ccccc21 was read as SARS PLpro yeast 3.7%, 2A StopGo -19.0%, RE007 growth inh -10.0%, MARV entry inh inconclusive, Cruzain inh noDet 20.7%, NS1 inh 21.3%, Cruzain Triton -6.8% and Lassa entry inh inconclusive.
`CSc1ccccc1NC(=O)COC(=O)CSc1ccc(C)cc1` gave 2A StopGo -3.1%, RE007 growth inh -17.8%, MARV entry inh -1.7% and Lassa entry inh 9.2%[46.1 µM].
COc1ccc(CNC(=O)c2ccc(CS(=O)Cc3cccc(Cl)c3)o2)cc1 (stereo not given) was read as SARS PLpro yeast 0.9%, 2A StopGo -16.8%, RE007 growth inh 0.5%, MARV entry inh -15.5%[46.1 µM], NS1 inh 5.8% and Lassa entry inh inconclusive.
For O=S(=O)(c1ccc(S(=O)(=O)N(Cc2ccc(F)cc2)C2CCCC2)cc1)N1CCCC1 the results were SARS PLpro yeast 1.9%, 2A StopGo -30.2%, RE007 growth inh 11.4%, MARV entry inh 10µM*, Cruzain inh noDet -22.3%, NS1 inh -19.4%, Cruzain Triton -1.4% and Lassa entry inh -16.5%.
Screening Cc1cccc(NC(=O)c2c(NC(=O)c3ccco3)sc3c2CCC(C(C)(C)C)C3)c1 (stereo not given) returned 2A StopGo -13.9%, MARV entry inh 15.9%[46.1 µM], Cruzain inh noDet -1.9%, Cruzain Triton -0.6% and Lassa entry inh 2.5%[46.1 µM].
For CC(=O)Nc1ccc(OCCOc2ccc(/C=C3/C(=N)N4C=CSC4=NC3=O)cc2)cc1 the results were SARS PLpro yeast -1.6%, 2A StopGo -12.2%, RE007 growth inh -8.5%, MARV entry inh -8.4% and Lassa entry inh 0.2%.
O=C(NN1CCOCC1)c1ccc(Br)s1 was read as SARS PLpro yeast 0.0%, 2A StopGo 0.8%, RE007 growth inh -14.4%, MARV entry inh -10.5%, NS1 inh -2.8% and Lassa entry inh -6.6%.
Screening CCCN(CCC)S(=O)(=O)c1ccc2c(c1)CCCN2C(C)=O returned SARS PLpro yeast 5.8%, 2A StopGo 16.8%, RE007 growth inh 16.5%, MARV entry inh 6.3%, Cruzain inh noDet 10.7%, NS1 inh 1.3%, Cruzain Triton 4.4% and Lassa entry inh -24.4%.
O=C(NC(=S)Nc1ncc(Br)cc1Br)c1cncc(Br)c1 was read as 2A StopGo -23.5%, RE007 growth inh -15.3%, MARV entry inh -8.6%, Cruzain inh noDet -10.1%, NS1 inh -10.4%, Cruzain Triton -3.9% and Lassa entry inh -11.9%.
Screening CCCN1C(=O)CN(C2CCCCCC2)C(=O)C1c1ccc(OCC)c(OC)c1 (stereo not given) returned 2A StopGo -8.6%, Cruzain inh noDet 1.8%, Cruzain Triton 0.1% and Lassa entry inh inconclusive.
Screening Cc1nc2sc(C(c3ccc(Cl)cc3)N3CCOCC3)c(O)n2n1 (stereo not given) returned SARS PLpro yeast -6.2%, 2A StopGo -2.4%, RE007 growth inh 2.2%, MARV entry inh -18.6%, Cruzain inh noDet 3.1%, NS1 inh -13.5%, Cruzain Triton -3.1% and Lassa entry inh -16.9%.
COc1cc2ccccc2cc1C(=O)Nc1ccc2oc(-c3ccccc3)nc2c1 was read as 2A StopGo -2.9%, Cruzain inh noDet -2.3%, Cruzain Triton -4.9% and Lassa entry inh -9.6%[46.1 µM].
Screening Cc1ccc(-n2cnnn2)cc1S(N)(=O)=O returned 2A StopGo -1.2%, Cruzain inh noDet 1.7%, Cruzain Triton 1.5% and Lassa entry inh inconclusive.
